TRPML1 agonist: human mucolipin-1 channel agonism | TRPML1-expressing cells, Ca2+ dye fluorescence, FDSS; host cell line not named in the record; reference of the full effect not given here | 410,000 tested, 0.12% active | Q9GZU1 | activation, % (test concentration not listed); in the data active = activation above about 50%; inconclusive = about 30% to 50%; inactive = below about 30%; note: 0% is about no effect; the text of the record puts the active cut at 80%
Target sequence (Q9GZU1 whole entry, looked up): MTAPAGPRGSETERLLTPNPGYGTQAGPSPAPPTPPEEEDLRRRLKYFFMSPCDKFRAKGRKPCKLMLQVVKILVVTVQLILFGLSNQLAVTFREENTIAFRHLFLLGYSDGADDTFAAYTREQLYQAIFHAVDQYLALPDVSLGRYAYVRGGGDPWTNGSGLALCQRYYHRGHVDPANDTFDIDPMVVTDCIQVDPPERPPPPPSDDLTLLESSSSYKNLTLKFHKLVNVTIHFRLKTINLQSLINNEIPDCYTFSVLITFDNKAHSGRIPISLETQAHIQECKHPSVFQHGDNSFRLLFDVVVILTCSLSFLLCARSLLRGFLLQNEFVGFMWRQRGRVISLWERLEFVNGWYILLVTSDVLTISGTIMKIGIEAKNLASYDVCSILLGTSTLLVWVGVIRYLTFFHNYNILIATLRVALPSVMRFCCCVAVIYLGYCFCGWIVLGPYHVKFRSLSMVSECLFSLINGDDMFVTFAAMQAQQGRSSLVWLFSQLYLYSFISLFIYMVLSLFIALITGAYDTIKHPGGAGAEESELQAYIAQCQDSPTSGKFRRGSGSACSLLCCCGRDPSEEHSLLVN
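Kinetic FDSS Ca2+ read in Tet-induced TRPML1-DL cells (ABD Ca8 dye plus quencher, 45-90 min RT loading): baseline, then compound, then 110 s agonist window; EC80 agonist 54-4 at 4uM final added afterwards for a 110 s antagonist window.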
gsp antagonist: antagonists of gsp mutant (McCune-Albright syndrome) | gsp-mutant cells, cAMP HTRF, 30 min; control for the full effect not named in the record | Potency, µM (doses to about 76.9 µM), inactives show at the top dose activity change, negative = inhibition, usual class: inhibitors | 340,000 tested, 0.4% active; active = falling curve of any shape with a large fitted effect; inconclusive = falling curve, mostly with a smaller effect; inactive = flat or rising curve; cell line not stated here;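 note: intracellular cAMP measured with PDE inhibitor Ro 20-1724 present during compound exposure; potency is the fitted concentration of half-maximal effect; % is set by controls: 0 for no effect and ±100 for the full control effect; nearly all actives have a fitted effect of over 65% in size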
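Cells, 2000/well, grown 16–24 h in DMEM 10% FBS with 0.5 mg/ml G418, then compounds plus […] (300 uM addition stock), 30 min at 37C. cAMP read by HTRF (cAMP-d2 and anti-cAMP antibody-K in lysis buffer) after 30 min RT.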
ClpP mod: qHTS Assay for Activators of ClpP; 340,000 tested, 1.9% active; Potency, µM (highest dose often 57.5 µM), for inactives: top-dose activity change, negative = active; purified B. subtilis ClpP, FRET peptide cleavage, 20 min; ATP-dependent Clp protease proteolytic subunit (Bacillus subtilis (strain 168)), P80244; active = well fitted falling curve with a large enough effect; inconclusive = small, poorly fitted or top-dose-only effect; inactive = no such curve, though single readings can be large or run the other way; note: potency is the fitted concentration of half-maximal effect; the source files actives as falling curves though it sought activators and does not explain the sign; nearly all actives have a fitted effect of over 65% in size; many hits overshoot -100%
Target sequence (P80244 whole entry, looked up): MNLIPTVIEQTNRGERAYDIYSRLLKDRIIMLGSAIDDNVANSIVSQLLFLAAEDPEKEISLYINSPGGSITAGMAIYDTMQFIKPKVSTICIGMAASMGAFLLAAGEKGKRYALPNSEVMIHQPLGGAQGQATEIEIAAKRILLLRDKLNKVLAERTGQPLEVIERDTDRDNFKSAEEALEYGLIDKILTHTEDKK
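Buffer: 100 mM Tris/HCl pH8, 100 mM KCl, 0.05% low protease BSA, 2.5% glycerol, 0.01% Tween-20. ClpP 10 microg/mL final; 20 min RT; delta FRET normalized to ADEP and DMSO controls.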
gsp ag: gsp mutant agonism. 340,000 tested, 0.13% active. Potency, µM (doses to about 76.9 µM), inactives show top-dose activation (cAMP increase), actives largely listed as activators. gsp mutant cells, cAMP HTRF, 30 min; control for the full effect not named in the record. AID 624287; active = well fitted activation curve with a large enough effect; inconclusive = small, poorly fitted or top-dose-only effect, or another doubt; inactive = no such curve, though single readings can be large or run the other way; cell line not stated here;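 note: phosphodiesterase inhibitor Ro 20-1724 added with compounds to block cAMP breakdown; potency is the fitted concentration of half-maximal effect; nearly all actives have a fitted effect of over 60% in size; about a fifth of the inactives were tested at one dose only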
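Cells stably selected in G418 were plated at 2000/well, grown 16-24 hr, then given compounds in DMSO with the PDE inhibitor […] (300 uM solution added) for 30 min at 37C; cAMP was read by HTRF.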
TRPML1 inh: human mucolipin-1 channel inhibition. 390,000 tested, 0.02% active. TRPML1-inducible cells, Ca2+ dye fluorescence, FDSS; hits give low values; inhibition of EC80 agonist-evoked calcium signal. Q9GZU1. activity change, negative = inhibition, % (concentration not given with the values); in the data active means activity change below about -50%; inconclusive means about -30% to -50%; inactive means above about -30%;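 note: stimulus is agonist 54-4 at its EC80 concentration; % is set by controls: 0 for no effect and ±100 for the full control effect; compound concentration not given in the record; the text of the record puts the active cut at -80%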
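TRPML1-DL cells, Tet-induced overnight (~16 h, 37 °C) at 1,500 cells/well, were loaded with Ca8 no-wash dye plus quencher for 45-90 min at room temperature. Compounds were pinned during FDSS kinetic reading; agonist 54-4 at EC80 (4 uM final) then added.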
Menin-MLL FL inh: displaces fluorescein MLL peptide from human menin | Fluorescence polarization, fluorescein-MLL peptide displacement from menin | FP activity change, % at 61.4 µM | 290,000 tested, under 10 active | AID 1766; inconclusive = falling polarisation curve, or a change in total fluorescence; inactive = total fluorescence flat and polarisation flat or rising; no compound was filed as active; the % refers to the polarisation; negative = inhibition;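 note: % of control where 0% means no effect; inhibitors lower the polarisation; unlabelled MLL peptide was the positive control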
Active calls of the source: *; u = inconclusive; x = not tested or not shown; & = joins results of further samples; [ ] = dose if it differs, or a comment.

Screens in order: gsp antagonist	gsp ag	ClpP mod	TRPML1 agonist	Menin-MLL FL inh	TRPML1 inh
- O=C(NNS(=O)(=O)c1ccccc1C(F)(F)F)c1cccc(S(=O)(=O)Nc2ccccc2Cl)c1
 : 11%	-17%	0.1%	0.5	x	-15
- CCC(=O)Nc1c(-c2ccc3ccccc3c2)nc2ccccn12
 : -4%	11%	3.7%	-0.3	-0.1	20
- Cc1nnc(N2CCN(c3ccccc3F)CC2)c2c1nnn2Cc1ccccc1Cl
 : x	x	1.1%	-1.0	x	-17
- CC1=C(N2CCCCC2)CCC1=O
 : -1%	u	0.5%	-0.8	x	14
- CN(C)CCCN(Cc1cc2cc3c(cc2[nH]c1=O)OCO3)C(=S)NCc1ccco1
 : 9%	-6%	x	-0.2	1.5	-4
- Cn1cc(/C=C2\SC(=O)NC2=S)c2ccccc21
 : -15%	-19%	1.1%	2.1	u	3
- COc1ccc(CNc2ncnc3onc(C)c23)cc1
 : x	x	0.9%	-1.0	x	18
- Cc1ccc(NC(=S)NNC(=O)c2ccco2)cc1
 : -3%	1%	-0.3%	-0.1	0.2	-13
- COc1ccc(CCNC(=O)c2ccc(CNS(=O)(=O)c3ccc(C(C)(C)C)cc3)cc2)cc1OC
 : -22%	-5%	-1.6%	1.0	0.1	-4
- O=C(NCCCN1CCOCC1)[C@@H]1CSC2c3ccccc3C(=O)N21 (some centres undefined)
 : 7%	23%	-1.1%	-0.4	2.0	38
- CCOC(=O)CNC(=O)CSc1ccc2nnc(-c3cccnc3)n2n1
 : -3%	38%[15.4 µM]	-0.9%	1.1	-0.9	-5
- CC(Cc1ccccc1)C(=O)N(C)Cc1cccnc1 (centres undefined)
 : 14%	-35%[inhibitor]	-1.0%	-0.3	3.2	14
- COc1ccc(N2CC(NC(=O)Nc3ccccc3)CC2=O)cc1 (centres undefined)
 : 10%	15%	x	-0.4	0.6	-5
- CN(C)c1ccc(C(=O)c2ccc(N(C)C)c3ccccc23)cc1
 : 10%	u	-1.7%	0.1	2.7	12
- O=C1OC(c2ccccc2)=NC12CC2c1ccc(Cl)cc1 (centres undefined)
 : 19%	29%	-3.0%	0.5	0.1	-28
- CC(=O)Oc1ccc(C(=O)Nc2cccc(C(=O)NC(C)(C)C)c2)cc1
 : -15%	19%[15.4 µM]	x	0.3	0.0	-10
- O=C1/C(=C/c2ccncc2)SC(=S)N1C1CCS(=O)(=O)C1 (centres undefined)
 : -8%	17%	-0.7%	-0.3	3.0	5
- COC(=O)C[C@H]1c2ccccc2S(=O)(=O)N1Cc1ccc(OC)cc1
 : 4%	-1%	-2.5%&-1.2%	0.1&-0.6	x	9
- CCc1ccc(N2CC(O)(c3cccs3)[N+]3=C2SCCC3)cc1 (centres undefined)
 : 9%	-10%[15.4 µM]	x	0.5	-0.2	43
- Cc1ccc(C)c(CSc2nnc(-c3cccs3)n2Cc2ccco2)c1
 : -23%	-18%	-3.6%	3.6	-0.5	12
- COc1ccc(C(C(=O)NC2CCCC2)N(Cc2ccccc2)C(=O)CNC(=O)c2ccco2)cc1 (centres undefined)
 : 6%	-37%[inhibitor]	-2.3%	-0.6	2.9	8
- Cc1ccc(S(=O)(=O)N2CCC(NC(=O)c3cccnc3)CC2)cc1Cl
 : 4%	-2%	x	-0.5	x	14
- O=C(NNc1c2ccccc2nc2ccccc12)c1cccc(O)c1
 : -11%	27%	-15%	0.2	-1.2	9
- COCCCNC(=O)Cn1c(=O)n(Cc2ccc(C(=O)NCc3ccc(C)cc3)cc2)c(=O)c2ccccc21
 : x	x	-17%	-0.2	x	-2
- O=C1c2ccccc2C(=O)N1c1ncn[nH]1
 : 9%	u	-1.9%	x	-1.0	x
- COC(=O)c1ccc(S(=O)(=O)NCc2ccc(OC)cc2)n1C
 : 3%	17%[15.4 µM]	-1.2%	-0.6	-1.2	14
- O=C(c1cnc2sccn2c1=O)N(Cc1ccccc1)c1ccccn1
 : -1%	-35%	-13%	-0.1	9.2	-8
- COc1ccc(OCC(=O)Nc2ccc(NC(=O)c3cccs3)cc2)cc1
 : -9%	-8%[15.4 µM]	x	-0.4	3.0	-1
- COc1cc(Cl)c(C)cc1NC(=O)COC(=O)c1cc[n+]([O-])cc1
 : 2%	-5%[15.4 µM]	x	0.6	4.4	-6
- Cc1ccc(C2CN(c3ccccc3)CC2C(=O)c2ccc(F)cc2)cc1 (centres undefined)
 : -2%	13%	u	-0.1	-0.3	7
- CCc1nc2ccc(C(=O)Nc3cc(-c4ccccc4)ccc3OC)cn2c1N(C)Cc1ccc(Cl)cc1
 : x	x	-19%	-0.3	x	6
- CC(=O)NC1CC2CCCC(C1)N2C(=O)Nc1c(C)cccc1C (centres undefined)
 : x	u	-1.1%	1.0	x	3
- CC(NC(=O)CN(C)CC(=O)Nc1ccc(F)c(F)c1F)c1ccccc1 (centres undefined)
 : -13%	-18%	0.8%	2.0	-2.1	-10
- Cc1cc(N)n(-c2ccc(Oc3ccccc3)c(S(=O)(=O)O)c2)n1
 : 12%	u	x	-0.9	-2.0	-17
- CCCCOc1ccc(-c2c(C#N)c(N)[nH]c(=S)c2C#N)cc1
 : -8%	u	3.0%	-0.9	-0.9	-7
- COC(=O)Cc1ccc(N(Cc2ccccc2F)S(=O)(=O)c2ccc(Cl)cc2)cc1
 : -12%	-4%[15.4 µM]	x	2.9	-0.4	-5
- CCCCn1c(N)c(N(Cc2ccccc2OC)C(=O)COc2ccccc2OC)c(=O)[nH]c1=O
 : 10%	-2%	2.6%	-0.1	x	-14
- COc1ccc(-c2ccc(C(=O)Nc3ccc(NC(C)=O)cc3)c3occc23)c(C)c1
 : x	x	3.2%	-0.2	x	-6
- O=C(O)CCc1ccc(-c2ccccc2)o1
 : 10%	14%	-17%	-0.6	2.9	4
- Cc1ccccc1CS(=O)(=O)c1ncc(Cl)c(C(=O)Nc2nnc(C(C)C)s2)n1
 : x	x	-2.1%	2.8	x	7
- CCOC(=O)CCCCCC(=O)Nc1ccc2c(c1)C(=O)N([C@@H](C)CO)C[C@H](C)[C@H](CN(C)S(=O)(=O)c1ccc(OC)cc1)OCCCC[C@H](C)O2
 : x	-9%	-1.9%	0.6	x	8
- Cc1cc(C)c(C)c(S(=O)(=O)N2CCN(C(=O)CCC(=O)N3CCOCC3)CC2)c1C
 : -1%	-6%	-0.6%	-0.8	-2.5	17
- Cc1ccccc1C(=O)/C=C1\NC(=O)CS1
 : -10%	-27%	-4.4%	-0.6	1.4	1
- O=C(CCCCCNc1nc(=S)[nH]c2ccccc12)NCCc1ccc(Cl)cc1
 : 2%	-4%[15.4 µM]	x	1.7	1.4	-3
- Cc1nnc(Sc2c(N)n(C)c(=O)[nH]c2=O)s1
 : 11%	2%	1.6%	0.6	-0.1	15
- O=C(c1sc2ccccc2c1Cl)N(Cc1ccccc1Cl)C1CCS(=O)(=O)C1 (centres undefined)
 : u	-4%	1.4%	1.1	0.5	-7
- O=C(CN=C1NC(=O)C(c2ccccc2)(c2ccccc2)N1)NCc1ccc(F)cc1
 : -9%	-3%	-3.6%	0.6	-4.2	8
- Cc1ccccc1Cn1c(C(=O)OC(C)C)cc2c1ccn2C
 : u	7%	-25%	0.3	-0.1	-11
- CN(C)CCCNC(=O)c1cc(C(=O)C2CCCCC2)c[nH]1
 : 8%	26%	0.4%	0.5	0.5	5
- CC1=C(C(=O)NCc2ccccc2)C(c2cc(Br)cc(Br)c2OC(C)C)NC(=O)N1 (centres undefined)
 : -3%	u	-0.4%	0.4	0.3	1
- COc1ccc(-c2nc(SCC(=O)Nc3c(C)cc(C)cc3C)n[nH]2)cc1
 : x	x	0.3%	2.8	x	-5
- Cc1cc(Cl)c(S(=O)(=O)NC(C)C)cc1OCC(N)=O
 : 9%	4%	0.5%	-0.1	3.3	-8
- CCOc1ccccc1/C=C(/NC(=O)c1ccccc1)C(=O)N1CCCCC1
 : -8%	1%[15.4 µM]	-12%	1.0	0.1	4
- COc1ccc(Cl)cc1C(=O)NCC(c1ccc(N(C)C)cc1)N1CCCC1 (centres undefined)
 : x	x	-0.4%	-0.9	x	-14
- CCc1ccccc1N(CC(=O)O)S(C)(=O)=O
 : 0%	2%	-1.3%	-0.2	4.5	47
- Cc1ccc(Nc2c(-c3ccco3)nc3ccc(C)cn23)cc1
 : x	x	6.3µM*	3.2	x	6
- COc1ccc(S(=O)(=O)N2CCN(c3ccc(F)cc3)CC2)cc1C(=O)N1CCCC1
 : -10%	10%[15.4 µM]	x	0.0	0.1	6
- COc1ccc(OC)c(C2=NOC(C(=O)N3CCCc4ccccc43)C2)c1 (centres undefined)
 : -20%	21%	-29%	1.1	1.9	11
- Oc1ccc2oc3c(c2c1C=NCc1ccncc1)CCCC3
 : -13%	6%	-16%	-0.5	u	u
- CCOc1ccc(NS(=O)(=O)c2ccc3c(c2)NC(=O)CCS3)cc1
 : x	x	-0.5%	0.8	x	-22

(further entries)
Screens in order: gsp antagonist	gsp ag	ClpP mod	TRPML1 agonist	Menin-MLL FL inh	TRPML1 inh
- COc1cc(C2c3c(-c4ccccc4)n[nH]c3C(=O)N2c2ccccc2)ccc1O (centres undefined)
 : 0%	1%	-0.3%	0.2	0.9	-7
- CCOc1ccc2nc(N3CCN(C(=O)C(C)C)CC3)sc2c1
 : x	x	-1.4%	0.7	x	10
- CCN1C(=O)[C@H]2[C@@H](c3ccc(C)cc3)N3C(=O)N(c4cccc(Br)c4)C(=O)[C@@]3(C)[C@H]2C1=O
 : -2%	15%	0.2%	0.1	x	18
- CN(C)Cc1cnc2ccc(Cl)cn12
 : 8%	u	-0.1%	0.8	0.4	2
- Cc1noc(C)c1CSc1nnc(-c2ccccc2)n1N
 : -2%	-2%	0.7%	-0.5	-1.9	7
- COc1ccccc1N1CCN(C(=O)Nc2cn(CC(C)C)c(=O)c3ccccc23)CC1
 : x	x	4.1%	1.9	x	14
- CCCCn1c(=O)[nH]c(=O)c2c1nc(-c1ccc(OC)c(Br)c1)n2CC(C)C
 : u	18%	x	5.6	-0.6	21
- Cc1cc2nc(-c3cc(N4CCOCC4)ccc3[N+](=O)[O-])ccn2n1
 : 8%	-6%[15.4 µM]	x	-1.2	-1.2	-1
- Cc1ccc(S(=O)(=O)NCC(=O)OC2CCOC2=O)cc1 (centres undefined)
 : -3%	4%	u	-0.6	1.6	43
- C/C(Nc1ccccc1)=C(/C#N)C(N)=O
 : -12%	22%	0.2%	-0.2	1.0	5

Assay outcomes (PubChem)
